High-throughput results as filed in PubChem.
Mtb growth: M. tuberculosis H37Rv growth inhibitors, H37Rv strain (AID 1626) | M. tuberculosis H37Rv growth inhibition; higher % means a stronger effect | inhibition, % at 10 µM; hits with a dose series show IC50 in µM | 0.95% of 220,000 active;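 active = confirmed in a dose series; inconclusive = inhibition above 80% but not taken into the dose series; inactive = below 80% or under 30% at every dose of the series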;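 note: bacteria incubated seven days before Alamar blue readout; 0% = bacteria only wells and 100% = bacteria with antibiotic wells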
Arbovirus anti: antivirals against arbovirus infection, primary screen, cell-based, full library, 10K replicate subset; AID 1251, 2008; arbovirus infection cell-based antiviral screen; inhibition, % at 10 µM; 0.37% of 200,000 active;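 active = inhibition from about 30%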;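 note: bluetongue infection of BSR cells; cell survival read as ATP light after 72 h; 0% = infected wells without compound and 100% = uninfected wells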
RecA intein inh: Mtb RecA intein splicing inhibitors, primary screen, biochemical, fluorescence, HTS. AID 2221, 2009. cell-free RecA intein splicing. Protein RecA (Mycobacterium tuberculosis (strain ATCC 25618 / H37Rv)), P9WHJ3. inhibition, %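 (about 9 µM by stock and volumes)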. 0.75% of 290,000 active; in the data active = inhibition above about 30%; inconclusive = no clear call, values can overlap the other calls;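 note: 0% = vehicle wells and 100% = reference inhibitor control wells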
Target sequence (P9WHJ3 whole entry, looked up): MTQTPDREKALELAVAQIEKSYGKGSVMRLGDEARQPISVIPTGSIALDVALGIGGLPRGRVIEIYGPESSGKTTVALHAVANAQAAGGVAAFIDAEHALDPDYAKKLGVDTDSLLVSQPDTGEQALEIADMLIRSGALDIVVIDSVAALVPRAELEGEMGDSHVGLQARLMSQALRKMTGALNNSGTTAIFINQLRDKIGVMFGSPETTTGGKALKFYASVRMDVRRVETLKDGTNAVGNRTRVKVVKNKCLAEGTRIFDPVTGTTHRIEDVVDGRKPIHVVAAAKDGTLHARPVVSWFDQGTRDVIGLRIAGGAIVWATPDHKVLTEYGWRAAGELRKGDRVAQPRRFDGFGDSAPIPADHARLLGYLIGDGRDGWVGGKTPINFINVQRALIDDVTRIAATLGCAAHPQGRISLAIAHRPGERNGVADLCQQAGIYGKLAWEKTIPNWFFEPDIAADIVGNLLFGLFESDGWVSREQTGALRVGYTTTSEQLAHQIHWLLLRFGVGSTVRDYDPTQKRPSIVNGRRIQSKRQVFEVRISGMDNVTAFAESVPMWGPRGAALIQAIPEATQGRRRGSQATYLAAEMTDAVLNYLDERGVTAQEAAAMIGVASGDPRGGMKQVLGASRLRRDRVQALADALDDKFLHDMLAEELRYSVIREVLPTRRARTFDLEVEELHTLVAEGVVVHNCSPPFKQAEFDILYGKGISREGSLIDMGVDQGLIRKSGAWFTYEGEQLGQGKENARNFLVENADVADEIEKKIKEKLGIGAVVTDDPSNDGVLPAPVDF
Mtb betalactam: beta-lactam sensitization of Mtb H37Rv, H37Rv; M. tuberculosis H37Rv growth with meropenem, percent inhibition; hits of this screen are not shown here; inhibition, % at 25 µM; 0.27% of 330,000 active; AID 434955, 2010;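 active = about 74% or more and at least 40 points above the plate without the antibiotic, then above 30% in a dose series; inconclusive = first-round hits that could not be retested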;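 note: growth measured after seven days incubation then overnight dye step; 0% = bacteria only wells and 100% = bacteria with antibiotic; twin plates without the antibiotic show which effects depend on it; some results filed as inactive read as strong as hits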
YopH PTP inh: YopH tyrosine phosphatase inhibitors, primary screen, biochemical, fluorescence Ex485/Em525. YopH tyrosine phosphatase [Yersinia enterocolitica]. inhibition, %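 (about 10 µM by stock and volumes)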. 0.16% of 140,000 active. AID 898, 2007;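 active = inhibition of 50% or more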;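 note: controls were vehicle for no effect and minimum signal wells for full effect; inactives centre near -20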
Arbovirus anti repeat: recorded beside Arbovirus anti, whose call it bears; inhibition, %; measured here: 10K subset replicate screen; many hits read low in the repeat;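 first of two repeat runs on a subset; 0% = infected and 100% = uninfected wells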
* marks the source's active call; other numbers are inactive results; ? = inconclusive; · = not tested or not shown. Some of the compounds tested; rates above refer to the full screens.

Sample of the layout, three compounds:
SMILES	Mtb growth	Arbovirus anti	RecA intein inh	Mtb betalactam	YopH PTP inh	others
CCn1c(=O)c(C(=O)Nc2ccccc2F)c(O)c2ccccc21	·	·	-2.5	-3	·
CCN(CC)c1ccc(CNc2nc3ccccc3n2CCN2CCOCC2)cc1	7%	8	-1.4	6	·
CC(=O)N(C(C)=O)c1c(C#N)c(C)n(-c2ccccc2)c1C(=O)c1ccccc1	1%	4	0.3	23	-43

All compounds of this part (from the top)
SMILES	Mtb growth	Arbovirus anti	RecA intein inh	Mtb betalactam	YopH PTP inh	others
CCn1c(=O)c(C(=O)Nc2ccccc2F)c(O)c2ccccc21	·	·	-2.5	-3	·
CCN(CC)c1ccc(CNc2nc3ccccc3n2CCN2CCOCC2)cc1	7%	8	-1.4	6	·
CC(=O)N(C(C)=O)c1c(C#N)c(C)n(-c2ccccc2)c1C(=O)c1ccccc1	1%	4	0.3	23	-43
CCC(C)NC(=O)Nc1ccc(Br)cc1 (configuration not stated)	1%	-4	-0.1	-3	·
O=C(O)CCc1ncc(C(F)(F)F)cc1Cl	-17%	-1	-0.6	-14	-34
O=C(NC1CCCC1)C1CCCN1C(=O)Nc1ccc(Cl)cc1 (configuration not stated)	-14%	-2	0.1	-1	-42
O=C(OCC(=O)N1CCN(C(=O)COC(=O)c2ccc(O)cc2O)CC1)c1ccc(O)cc1O	·	·	-0.3	1	·
O=C(NNC(=O)c1ccccc1O)c1ccc(Br)cc1	·	·	-4.9	-3	·
Cc1cc(-c2ccccc2)nc(Oc2ccc(C(C)(C)C)cc2)c1S(C)(=O)=O	2%	-7	7.4	3	-46
COc1ccc(N2CCN(CCNC(=O)Nc3ccc(Cl)cc3)CC2)cc1	28%	5	2.0	·	-3
O=C(OCc1ccc(F)cc1)c1cc2ccccc2cc1O	·	·	6.4	70	·
COc1ccc(N2CCN(CCCn3c(=S)[nH]c4ncccc4c3=O)CC2)cc1	-2%	1	1.1	-2	-3
CC(C)OC(=O)c1ccccc1C(=O)c1ccc(N)c([N+](=O)[O-])c1	3%	-7	2.0	1	·
COc1ccc(C(C)=O)cc1COC(=O)c1ccc2ccccc2n1	69%	21	2.7	97	·
CCC(C)NC(=O)N[C@@H](CCSC)C(=O)OC (some centres not stated)	-2%	3	-0.7	-3	17
C=CCN1C(=O)NC2(CCCCC2)C1=O	-1%	1	1.4	-3	-35
COc1ccc(N2C(=O)CN=C2Nc2nc(C)cc(C)n2)cc1	-14%	-3	3.7	?	-14
Cc1ccccc1Nc1c(-c2ccc(N3CCOCC3)cc2)nc2cnccn12	-4%	·	-4.5	-6	·
NS(=O)(=O)c1ccc(NC(=O)CSC2CCCCC2)cc1	-1%	9	-0.2	0	-44
CCCCCOC(=O)C1[C@H]2C(=O)N(Cc3cccs3)C[C@]23C=C[C@H]1O3 (some centres not stated)	-5%	8	1.1	-9	-58
O=C(NCCc1ccc(Cl)cc1)c1ncn[nH]1	-2%	-6	1.4	-8	-31
COC(=O)COc1cccc2c(=O)n(CC(=O)NCc3ccccc3)ccc12	-8%	·	-1.1	-1	·
Cc1cccc(NC(=S)NC2CCCC2)n1	2%	11	0.5	-1	·
CCS(=O)(=O)N1Cc2ccccc2CC1C(=O)Nc1nnc(SCc2ccc(C#N)cc2)s1 (configuration not stated)	?	12	6.4	20	-9
Cc1cc(N2C(=O)C3C4CCC(C4)C3C2=O)no1 (configuration not stated)	1%	5	-2.9	0	·
Cc1oc(C(=O)O)cc1COc1ccccc1Cl	-1%	6	0.2	-1	-4
COc1ccc(NC(=O)CC2C(=O)N(c3ccc(OC)cc3)C(=O)N2CCc2cccs2)cc1 (configuration not stated)	0%	12	-3.7	1	-18
N#Cc1c(Sc2ncc(C(F)(F)F)cc2Cl)nsc1C/C=N\OCc1c(F)cccc1Cl	-3%	6	24	-4	4
CCOC(=O)CCC(NC(=O)c1ccc(NCN2C(=O)c3ccccc3C2=O)cc1)C(=O)OCC (configuration not stated)	1%	-4	0.6	11	-42
Cc1cccc(C)c1NC(=O)CSc1nnc(-c2ccccc2)n1Cc1ccc2c(c1)OCO2	5%	-2	·	0	-163
COc1ccc(CCN2CN(S(=O)(=O)c3ccccc3)c3nc4ccccc4nc32)cc1OC	40%	-2	0.7	2	-22
O=C(Sc1ccc(Cl)cc1)c1ccccn1	·	·	0.4	41	·
Cc1ccsc1/C=N/NC(=O)CNC(=O)c1ccc(S(=O)(=O)N2CCOCC2)cc1	·	2	·	5	·
CS(=O)(=O)N1CCC(C(=O)Nc2ccc(OCc3ccccc3)cc2)CC1	-1%	-6	1.5	-4	23
COc1ccc(C(=O)Nc2ccc(Nc3ccccc3)cc2)cc1[N+](=O)[O-]	·	·	7.1	-5	·
CCOC(=O)CC1CCCCN1Cc1cn[nH]c1-c1ccc(F)cc1F (configuration not stated)	-4%	1	-2.0	-6	·
CCOC(=O)CC1C(=O)NCCN1C(=O)c1c(F)cccc1F (configuration not stated)	5%	3	-3.8	-4	-14
CO/N=C/C(C#N)=C/c1cc(C(=O)c2ccccc2)cn1C	8%	-4	-0.8	1	·
COc1cccc(-n2c(-c3ccccc3)c[nH]c2=S)c1	·	·	0.8	-5	·
CC(C)c1ccccc1NC(=S)NCC1(N(C)C)CCCCC1	·	·	0.3	6	·
C#CCNC(=O)C1=C[C@H](c2ccc3c(c2)OCO3)C[C@H](OCc2ccc(CO)cc2)O1	-4%	-2	-2.3	6	·
CCN(C(=O)c1cccc(Br)c1)C1CCS(=O)(=O)C1 (configuration not stated)	·	·	-0.2	-10	·
Clc1cccc(Cl)c1CN1CCN(c2ccccc2)CC1	-1%	-4	1.7	-2	-13
Fc1ccc(N=c2ssnc2Cl)c(F)c1	1%	4	-4.5	6	·
O=C(NCCC1CCCCN1S(=O)(=O)c1ccc(F)cc1)C(=O)Nc1ccccc1F (configuration not stated)	·	·	1.2	-4	·
CC1(C)NC(=O)N(CCCCOc2ccc(Cl)cc2C=O)C1=O	-22%	-4	1.4	-1	·
COc1ccc(CNC(=O)CN(Cc2ccc(C)cc2)C(=O)c2csnn2)cc1	·	·	-3.6	-2	·
Cc1ccc(/C=N/NC(=O)CSc2nc3ccccc3o2)cc1	24%	-5	1.4	4	-19
Cn1c(=O)c2c(nc(Br)n2CCCc2ccccc2)n(C)c1=O	5%	20	-0.7	3	-35
O=C(CCn1cnnn1)Nc1ccccc1	0%	4	-3.1	-1	·
CN(C(=S)NC1CCCCC1)C1(c2ccccc2Cl)CCCCC1=O (configuration not stated)	0%	9	-2.5	2	-1
O=C(COCc1nc2ccccc2c(=O)[nH]1)NC1CCCC1	1%	2	1.5	-6	7
O=C(NCCCn1ccnc1)c1ccc2ccccc2c1	·	·	-2.1	-3	·
CN1CC=C2C(C#N)=C(N)C(C#N)(C#N)[C@H](c3cccs3)[C@H]2C1	-5%	-8	-23	-10	-19
Cc1c(C(=O)NCCCN2CCOCC2)sc2nc(-c3ccccc3)cn12	·	-5	-0.1	5	-34	Arbovirus anti repeat=0
Cc1nnc(SCC(=O)c2cc(C)n(-c3ccc4c(c3)OCO4)c2C)s1	16%	3	-5.1	4	-29
S=c1[nH]nc(-c2cccnc2)n1/N=C/c1ccc(Br)s1	8%	7	-0.4	3	-35
C=CCSC1=C(C#N)C(c2ccccc2Cl)C(C(=O)c2cccs2)C(O)(C(F)(F)F)N1 (configuration not stated)	-6%	7	12	6	-25
COc1cc(OC)c(NC(=O)c2cc(S(=O)(=O)N3CCOCC3)cn2C)cc1Cl	·	·	0.1	-4	·
Cc1c(Br)c(C(F)(F)F)nn1CC(=O)NCC1CCCO1 (configuration not stated)	1%	6	-0.2	-1	-40
New compounds follow.
SMILES	Mtb growth	Arbovirus anti	RecA intein inh	Mtb betalactam	YopH PTP inh	others
Cc1csc(NC(=O)CSc2nc(C(C)C)nc3c2c(=O)n(C)c(=O)n3C)n1	-7%	-25	-0.7	-4	·
COc1cc(/C=N/Nc2nnc3c(n2)[nH]c2ccccc23)ccc1O	0%	-9	-4.7	1	-24
CCCc1ccc(S(=O)(=O)NCc2nnc(SC)n2C)cc1	·	·	0.8	4	·
CC1CCN(S(=O)(=O)c2ccc(F)c(C(=O)O)c2)CC1	-3%	2	4.6	0	-50
O=c1c2sccc2n(Cc2ccc(F)cc2)c(=O)n1-c1ccc(F)cc1	0%	-5	-6.2	2	-26
O=S(=O)(Nc1nc(SCc2ccc(Cl)cc2)n[nH]1)c1ccccc1	10%	·	3.4	-8	·
CN1CCN(C(=O)c2cc3sc4ccccc4c3s2)CC1	1%	·	2.0	-3	·
COCc1cc(C)n(CC(=O)NCC2CCCO2)c(=O)c1C#N (configuration not stated)	·	·	-0.7	-8	·
CCN1CCN(S(=O)(=O)c2ccc3c(c2)OCCO3)CC1	-9%	5	-1.5	6	-4
CCN1CCN(C(c2cccs2)C(C)NC(=O)c2ccccc2OC)CC1 (configuration not stated)	3%	3	-0.1	-3	-32
O=C(Nc1ccc(N2C(=O)C3C4C=CC(C4)C3C2=O)cc1Cl)c1cccs1 (configuration not stated)	2%	-3	0.7	5	·
Cc1ccc(CN2CCc3c(OCC(=O)Nc4cc(C)ccc4C)cccc3C2=O)cc1	5%	8	10	3	-17
CCOCCCNC(=O)C1CCC(CNS(=O)(=O)c2cccc3nsnc23)CC1 (configuration not stated)	-4%	0	·	-4	-23
COC(=O)CN1C(=O)C(C)(C)Oc2ccc(C(=O)Nc3cccc(OC)c3)cc21	·	·	-0.7	3	·
Cc1nc2cc(-c3ccccc3)nn2c(C)c1CCC(=O)N1CCN(c2ccccc2)CC1	32%	7	3.7	-5	-38
OC(CNCc1ccccn1)c1ccccc1 (configuration not stated)	-2%	3	-2.6	4	-11
CN1CCN(CC(=O)NN(Cc2ccccc2)c2ccccc2)CC1	-2%	·	-0.6	0	·
Cn1cc(/C=C/C(=O)c2ccccc2)c2ccccc21	0%	·	-1.3	87	·
O=C(c1ccco1)N1CCN(c2c([N+](=O)[O-])nn(-c3cccc(Cl)c3)[n+]2[O-])CC1	-1%	-7	-4.6	3	·
CC(=O)Nc1ccc(S(=O)(=O)Nc2cccc(-c3ccc4nncn4n3)c2)cc1	-4%	2	-1.3	-2	·
COc1ccccc1C(=O)NC(=O)COC(=O)Cc1n[nH]c(=O)c2ccccc12	·	·	0.4	-11	·
COc1ccccc1C1CC(=O)Nc2cc(C)c(C)cc21 (configuration not stated)	·	·	6.2	-1	·
CN(C)CCSc1nc(-c2ccccc2)nc2c1CCCC2	-4%	·	·	2	·
COc1ccc(-c2cc(C(F)(F)F)nc(S(=O)(=O)CCCC(=O)Nc3cccc(O)c3)n2)cc1OC	5%	-31	62*	·	·
COc1ccc(OCc2cc(C(=O)N(C)C3CCOCC3)no2)c2ccccc12	·	·	16	11	·
COc1ccc(C(=O)Nc2nc3ccccc3s2)cc1OC	1%	16	2.9	23	·
Cc1cccc(N2CCN(C(=O)c3csc4ccccc34)CC2C)c1 (configuration not stated)	8%	-2	9.7	2	-9
CC(C)C1C(=O)NC(=S)N1S(=O)(=O)c1ccc(C(C)(C)C)cc1 (configuration not stated)	-3%	20	-1.1	20	-17
CC(C)(C)NC(=O)CCN(/N=C/c1ccccc1O)C1=NS(=O)(=O)c2ccccc21	·	·	-1.6	6	·
CCOC(=O)C1=NNC2(c3ccccc3)C(=O)N(c3cccc(Br)c3)C(=O)C12 (configuration not stated)	-6%	7	0.9	-8	-33
CC/C(O)=C(/C#N)c1nnc2n1CCCCC2	-3%	2	·	-2	-27

Random excerpt: 2 entries already listed, in no set order.
SMILES	Mtb growth	Arbovirus anti	RecA intein inh	Mtb betalactam	YopH PTP inh	others
CC(C)C1C(=O)NC(=S)N1S(=O)(=O)c1ccc(C(C)(C)C)cc1 (configuration not stated)	-3%	20	-1.1	20	-17
CCOC(=O)C1=NNC2(c3ccccc3)C(=O)N(c3cccc(Br)c3)C(=O)C12 (configuration not stated)	-6%	7	0.9	-8	-33

Taken from above, 4 compounds:
SMILES	Mtb growth	Arbovirus anti	RecA intein inh	Mtb betalactam	YopH PTP inh	others
CCn1c(=O)c(C(=O)Nc2ccccc2F)c(O)c2ccccc21	·	·	-2.5	-3	·
CCN(CC)c1ccc(CNc2nc3ccccc3n2CCN2CCOCC2)cc1	7%	8	-1.4	6	·
CC(=O)N(C(C)=O)c1c(C#N)c(C)n(-c2ccccc2)c1C(=O)c1ccccc1	1%	4	0.3	23	-43
CCC(C)NC(=O)Nc1ccc(Br)cc1 (configuration not stated)	1%	-4	-0.1	-3	·
